NPYLR7 agonist: mosquito NPYLR7 agonism; AID 1259423; activation, % at 10 µM; HEK293T NPYLR7/Galpha15, GCaMP6s calcium fluorescence; 270,000 compounds, 0.15% hits; in the data active = activation above about 40%;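 note: 0% = vehicle and 100% = reference agonist at the receptor; some compounds past the cut are filed as inactive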
NPYLR7 agonist max-min: further read-out of NPYLR7 agonist, marked with its call; activation, %; measured here: Max-Min RFU normalised activation; some inactives read as strong as hits;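 span of the calcium signal over five minutes; 0% = vehicle and 100% = native peptide agonist; compound fluorescence can raise it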
Active calls of the source: *; & = joins results of further samples. This is a subset, so the mix of outcomes need not match the whole.

SMILES	NPYLR7 agonist	NPYLR7 agonist max-min
S=C(NCC1COc2ccccc2O1)NC1CC2CCC1C2 (centres undefined)	-1	11
COC(=O)[C@H](CC(C)C)NS(=O)(=O)NCc1ccccc1	16	4
O=C(NCCCl)NCc1nnnn1-c1cccc(F)c1	-7	-6
O=C(NCc1ccc2c(c1)OCO2)c1cccnc1N1CCN(C(=O)c2ccc(-c3cccc(Cl)c3)s2)CC1	19	19
O=C(CN1C(=O)CSC(c2cccc(Cl)c2)c2c(-c3ccccc3)nn(-c3ccccc3Cl)c21)NCc1ccc(F)cc1 (centres undefined)	14	19
O=C(O)CCC(=O)c1ccc(Cl)s1	13	8
COc1cccc(CNC(=O)c2cccnc2N2CCCC2c2ccccn2)c1OC (centres undefined)	4	4
CCOc1ccc2c(c1)C=C(C(=O)N1CC(=O)Nc3ccccc31)CO2	6	3
CCCN(CCc1c[nH]c2ccc(NC(=O)c3cnc4ccccc4n3)cc12)CC1CC1	0	4
COc1ccc(NC(=O)N2CCC(Cc3ccc(C(F)(F)F)cc3)CC2)cc1	3	-1
O=C1NCCN1C(=O)c1ccco1	0	0
O=C(O)C1CC=CCC1C(=O)N1CCCCc2ccccc21 (centres undefined)	-8	-9
COC(=O)C(NC(=O)Cc1ccccc1)(Nc1cccc(C)n1)C(F)(F)F (centres undefined)	1	0
CC1CC(N2CCN(Cc3cccc(O)c3)CC2)C(=O)O1 (centres undefined)	4	5
Cc1cccn2c(=O)c3cc(C(=O)N4CCCCC4C)sc3nc12 (centres undefined)	12	5
CC(C)c1ccccc1N1C(=O)CSC1c1ccc(NC(=O)COc2ccc(Cl)cc2)cc1 (centres undefined)	1	8
O=C(NCCCO)c1nnc2n(c1=O)CCN2c1ccc(F)cc1	4	1
O=C(NCc1ccc2c(c1)OCCO2)C1CCN(S(=O)(=O)c2ccccc2F)CC1	1	35
Brc1cccc(-c2nnc(SCC=Cc3ccccc3)o2)c1	0	2
CN(CC(=O)O)c1nc(Cc2ccccc2)ns1	4	14
Cc1ccc(C)c(C2CC(=O)Nc3c2c(C)nn3-c2ccc3nncn3n2)c1 (centres undefined)	-15	-24
CC(C)SC(=N)N	-12	-19
CC(=O)c1ccccc1-c1cc(-n2cccn2)ncn1	17	10
Cc1ccc(-c2cc3c(SCC(N)=O)nccn3n2)cc1	10	6
Cc1oc(-c2cccc(Cl)c2)nc1CN1CCN(C)C(=O)C1	19	17
CCn1ncnc1CN1CCC(CNC(=O)c2cccc(C)c2)C1 (centres undefined)	5	4
CC(C(=O)Nc1ccc(F)c(F)c1)n1nc(-c2ccc(F)cc2)oc1=O (centres undefined)	3	2
CCN1CC=C2C(C1)C1(C(=O)Nc3ccccc31)C(C#N)C(=N)C2(C#N)C#N (centres undefined)	29	40
CN(C)c1cccc(Nc2cc3c(cn2)cc(-c2cccnc2)n3Cc2ccccc2)c1	0	10
COc1ccc(F)cc1-c1cc(N)ncn1	4	2
CN1CC2(CCCN(C(=O)c3cc(-c4ccsc4)n[nH]3)CC2)OC1=O (centres undefined)	4	3
O=C(CCCc1cccs1)NCC1(c2ccc(F)cc2)CCOCC1	4	1
COc1ccc(CCN(C)c2cc(Oc3ccccc3Cl)ncn2)cc1OC	12	11
O=C(NC(C(=O)NCc1ccccc1)C1CCN(C(=O)c2cccc(C(F)(F)F)c2)CC1)c1ccccc1 (centres undefined)	4	1
O=C(NCCOc1ccccc1Cl)C1CC1(c1ccccc1)c1ccccc1 (centres undefined)	-8	-15
Cc1cc(C)cc(OCCN(C)C(=O)/C=C/c2cc3ccccc3[nH]c2=O)c1	-2	-4
COc1cccc(NC(=O)Nc2cccc(-c3csc4nc(C)cc(=O)n34)c2)c1	28	21
CCOC(=O)C1CCN(Cc2oc(CO)cc(=O)c2O)CC1	3	3
CCn1c(CC2CCNCC2)nn(Cc2noc(-c3ccccc3)n2)c1=O	14	5
CCc1nnc(NC(=O)/C=C/C(=O)N2CCOCC2)s1	5	4

4 structures out of the list, arranged by length of the SMILES, descending:
SMILES	NPYLR7 agonist	NPYLR7 agonist max-min
O=C(NCc1ccc2c(c1)OCO2)c1cccnc1N1CCN(C(=O)c2ccc(-c3cccc(Cl)c3)s2)CC1	19	19
CCOc1ccc2c(c1)C=C(C(=O)N1CC(=O)Nc3ccccc31)CO2	6	3
Cc1cccn2c(=O)c3cc(C(=O)N4CCCCC4C)sc3nc12 (centres undefined)	12	5
O=C(NCCCl)NCc1nnnn1-c1cccc(F)c1	-7	-6

(next part)
SMILES	NPYLR7 agonist	NPYLR7 agonist max-min
CC(C)CN(CCN(C)C)c1ncnc2ccsc12	-7	-12
OC1=C(c2nc3ccccc3[nH]2)CCC/C1=C\c1ccccc1	7	4
COCCCNCC(=O)N(CCc1ccc(OC)c(OC)c1)Cc1ccc(C)s1	-9	-21
O=c1cc(/C=C/c2ccccc2)[nH]c2ccccc12	3	5
CC(=O)Nc1c2c(nn1C(C)(C)C)CSC2	10	8
Cc1nc(N2CCCC(NCCC3=CC[C@H]4C[C@@H]3C4(C)C)CC2)nc2cc(S(C)(=O)=O)ccc12 (some centres undefined)	4	2
CCCn1ccnc1-c1nccn1Cc1ccccc1-n1cncn1	-4	-6
Cc1nc2c(=O)n(CC(=O)N(C(C)C)C(C)C)nc(-c3cccs3)c2s1	1	-2
C1=CCC(C2OCC(CN3CCOCC3)O2)CC1 (centres undefined)	-2	10
O=C(C1SCCc2ccccc21)N1CCN(CCO)CC1 (centres undefined)	-20	-23

The results go on:
The line under a structure holds: NPYLR7 agonist, NPYLR7 agonist max-min
> CCN(CC)C1CCN(C(=O)CCCn2nnnc2CN2CCOCC2)C1 (centres undefined)
 : -3, -5
> CC(C)NC(=O)NCC1CCCN(Cc2cccc3cccnc23)C1 (centres undefined)
 : 3, 2
> COCCNC(=O)Cn1nc(C2CC2)c2cnn(-c3ccc(C)c(C)c3)c2c1=O
 : 1, 1
> N#CCCN(Cc1ccccn1)C(=O)Nc1cccc(F)c1
 : -9, -7
> CCOC(=O)c1ccc(S(=O)(=O)N2CCN(C(=O)c3cc(C4CC4)nc4onc(C)c34)CC2)cc1
 : 5, -1
> CCOC(=O)N(C)c1c(CC)nc2ccc(C(=O)N3CCNC(=O)C3)cn12
 : 20, 15
> CCCCN1CCCn2cccc2C1c1cccc(C(F)(F)F)c1 (centres undefined)
 : 13, 19
> COCCn1c(C2CC(=O)N(c3cccc(C)c3C)C2)nc2ccccc21 (centres undefined)
 : -1, 6
> CCC(Nc1cccc(OC)c1)C(=O)N(C)Cc1ncc(C)[nH]1 (centres undefined)
 : 1, 5
> COCCN(Cc1nc2cc(Cl)ccc2o1)C(=O)c1ccc(Cl)cc1Cl
 : 1, -1
> OC1(Cn2ccnc2)CCN(c2nc(-c3ccccc3)nc3c2CCC3)CC1
 : 11, 4
> C=CCn1c(=O)c2c(nc3n2CC(C)=NN3Cc2ccccc2C)n(C)c1=O
 : -14, -15
> O=C(CN1CCCCCCC1=O)NC1CC1c1ccc(F)cc1 (centres undefined)
 : 9, 6
> O=C(NCc1ccccc1)N1CCn2cccc2C1c1ccc(F)c(F)c1 (centres undefined)
 : 5, 4
> CN1CCN(C(=O)C2CCCN(S(=O)(=O)N3CCCCC3)C2)CC1 (centres undefined)
 : 0, -3
> O=c1[nH]c(=S)[nH]c2c1C(c1ccc(Cl)cc1)c1c([nH]c(=S)[nH]c1=O)O2
 : 7, 5
> CCOC(=O)C(C)Oc1cccc2c(=O)n(CC(=O)NCc3ccco3)ccc12 (centres undefined)
 : -7, -5
> CCNC(=O)NC(=O)C(C)Sc1nnc(-c2ccco2)n1CC (centres undefined)
 : -2, 3
> CCN(C(=O)Nc1ccc(OC)c(C)c1)C(C)c1cccnc1 (centres undefined)
 : 10, 9
> Nc1c(C(=O)CSc2nnc(-c3ccc4c(c3)OCO4)o2)c(=O)[nH]c(=O)n1C1CC1
 : 5, 5
> COc1ccc(OC)c(NC(=O)C2(C)CCN2Cc2ccsc2)c1 (centres undefined)
 : 6, 3
> CN(Cc1ccc(Br)cc1)CC(O)COc1cccc(Br)c1 (centres undefined)
 : -1, -1
> Cc1ccc(N=c2scc(C)n2N2CCOCC2)c(C)c1
 : -2, -5
> Cc1ccc(NC(=O)N(CC(=O)N(Cc2cccn2C)CC(C)C)CC(C)C)c(C)c1
 : 18, 22
> C#CCNC(=O)c1cc(-c2cccs2)nc2c1cnn2CC
 : -7, -8
> CCn1ccnc1-c1c(-c2ccccc2)ncn1CCc1ccncc1
 : 0, 0
> Cc1ccc(C)c(NC(=O)CCNC(=O)c2cc(-c3ccccc3)nn2C)c1
 : -1, 8
> COc1cccc(-c2ccncn2)c1OC
 : 7, 6
> CC(NC(=O)c1cccnc1S(=O)(=O)C(F)(F)F)C1CC1 (centres undefined)
 : -19, -20
> CCOC(=O)N1CCN(Cc2ccc3c(c2)CN(C(=O)CCc2cnn(C)c2)CCO3)CC1
 : 17, 1
> COc1ccc(OC)c(NC(=O)Nc2c(C)nc3sccn3c2=O)c1
 : -2, -2
> Fc1ccc(CSc2nc3ncccc3[nH]2)cc1
 : 4, 3
> Cc1ccc(OCC(=O)N(Cc2ncc[nH]2)c2cccc(F)c2)c(C)c1
 : -1, -1
> Cc1ccc(C(=O)NCCC2CN(Cc3ccco3)CCO2)cn1 (centres undefined)
 : 4, 17
> CSc1ccccc1C(=O)NCc1ccc2c(c1)OCCO2
 : 19, 11
> CCSc1nnc(-c2cn(C)nc2OC)n1CC
 : 1, 3
> CCOC(=O)C1(C)CCCN1C(=O)c1c(F)cccc1F (centres undefined)
 : -1, -3
> O=C(Nc1ccc([N+](=O)[O-])cc1)C12CC3CC(C1)CC(c1ccccc1)(C3)C2
 : -6, -3
> Cc1c(N=C2C=CC(=O)c3ncccc32)c(=O)n(-c2ccccc2)n1C
 : 6, 3
> O=C(Nc1ccc(F)c(F)c1)Nc1ccc(N2CCc3ccccc3C2)c(C(=O)NC2CC2)c1
 : 17, 22
> CCCNc1nc2ccccn2c(=O)c1C=C1SC(=S)N(CCOC)C1=O
 : 1, 6
> O=C(NC(c1cccnc1)C(F)(F)F)c1cc(COc2ccc3c(c2)CCCC3)on1 (centres undefined)
 : 12, 6
> Cc1nccn1S(=O)(=O)c1cc(Br)ccc1Br
 : 16, 7
> Cn1cc(Cl)c(C2Nc3ccccc3C(=O)N2CCCN2CCOCC2)n1 (centres undefined)
 : -2, -5
> CC(=O)Nc1ccc(S(=O)(=O)N2N=Cc3sccc3B2O)cc1
 : -7, -10

Looked up by structure from the list above (six):
The line under a structure holds: NPYLR7 agonist, NPYLR7 agonist max-min
> Cc1ccc(OCC(=O)N(Cc2ncc[nH]2)c2cccc(F)c2)c(C)c1
 : -1, -1
> Cc1ccc(C(=O)NCCC2CN(Cc3ccco3)CCO2)cn1 (centres undefined)
 : 4, 17
> CCSc1nnc(-c2cn(C)nc2OC)n1CC
 : 1, 3
> Cc1nccn1S(=O)(=O)c1cc(Br)ccc1Br
 : 16, 7
> COc1ccc(OC)c(NC(=O)Nc2c(C)nc3sccn3c2=O)c1
 : -2, -2
> CCOC(=O)C1(C)CCCN1C(=O)c1c(F)cccc1F (centres undefined)
 : -1, -3

New compounds follow:
The line under a structure holds: NPYLR7 agonist, NPYLR7 agonist max-min
> c1ccc(COc2cccn3c(NC4CCCCC4)c(-c4ccccn4)nc23)cc1
 : -5&20, -3&16
> Nc1nc2ccc(C(F)(F)F)cc2[nH]1
 : -3, 880
> O=C(c1ccc(CSc2nc(Cl)cc(N3CCC(Cc4ccccc4)CC3)n2)cc1)N1CCN(c2ccccc2Cl)CC1
 : 14, 11
> O=C1CN(Cc2ccccc2Cl)S(=O)(=O)c2ccccc2N1Cc1cccc(F)c1
 : -1, -3
> Cc1cnc(C(=O)N2CC[C@@H](c3sccc3C)[C@H](O)C2)cn1
 : 11, 8
> CS(=O)(=O)NC1CCCC1c1ccc(F)cc1 (centres undefined)
 : 0, -2
> CCC(c1ccccc1)N1CCC(C(=O)NC2CC2)CC1 (centres undefined)
 : 6, 2
> NC(=O)c1nc(-c2ccccc2[N+](=O)[O-])nc2c1[nH]c(=O)n2-c1ccccc1F
 : -9, -11
> Cc1ccc(C2CC2C(=O)NC(C)c2nc(C3CCCC3)no2)s1 (centres undefined)
 : 2, 0
> CCn1nc(C(=O)N2CCN(c3ccccc3)CC2)c2c1CCN(C(=O)c1ccc3ccccc3c1)C2
 : 8, -6
> CCCc1ncc(C(=O)NC(CN2CCOCC2)C(C)C)s1 (centres undefined)
 : 1, 1
> CC12OC(c3c(F)c(F)c(F)c(F)c31)C1CC=CCC12 (centres undefined)
 : -2, -2
> O=C(CC1CSc2nc3c(cnn3-c3ccccc3)c(=O)n21)Nc1ccccn1 (centres undefined)
 : 1, 0
> CC1CCCCN1CCCNC(=O)c1ccc(CSc2nc(Cl)cc(N3CCN(c4cccc(Cl)c4)CC3)n2)cc1 (centres undefined)
 : 19, 23
> Cn1c(SCC(=O)Nc2sc3c(c2C(N)=O)CCCC3)nnc1C1CC1
 : 2, 2
> Cc1cc2nc(Sc3ccc4c(c3)OCCO4)c3ccccc3n2n1
 : 6, 4
> O=S(=O)(NCCc1ccc2c(c1)OCCO2)c1ccccc1F
 : -3, -5
> CCCS(=O)(=O)NC(=O)C1(C)CCN1C(=O)C1(c2ccc(Cl)cc2)CCC1 (centres undefined)
 : 1, 1
> O=[N+]1C=C(c2cccs2)N([O-])C2CCCCC21 (centres undefined)
 : 1, -2
> CCN(C(=O)CC1(CS(C)(=O)=O)CC1)c1cccnc1
 : 3, 11
> Cc1nn(C(=O)COc2ccc(Cl)cc2)c(C)c1Sc1ccccc1
 : 18, 20
> O=C(CSc1nnnn1-c1cccc(F)c1)Nc1cccnc1Cl
 : 4, 1
> CN(C)CCNC(=S)Nc1ccc(SC(F)F)cc1
 : 3, 9
> Cc1sc2ncnc(NC3CCN(C(C)C)CC3)c2c1C
 : -13, -20
> O=C(NC1CCC(NC(=O)[C@H]2CCCN2C(=O)CSc2ccccc2)CC1)c1ccccc1 (some centres undefined)
 : -2, -2

Screening results deposited in PubChem BioAssay by Fisher Drug Discovery Resource Center.
